# Screens as filed in PubChem.
# hNpr1 antagonist: antagonists of human natriuretic peptide receptor Npr1; Potency, µM (titrated, usually from 46.3 µM), without a hit: at the highest dose activity change, negative = inhibition, most hits filed as inhibitors; P16066; AID 1347048; HEK293 hNpr1 GloSensor cGMP, ANP-stimulated luminescence; 76,000 tested, 1.6% active; active = well fitted inhibition curve with a large enough effect; inconclusive = small, poorly fitted or top-dose-only effect; inactive = no such curve, though single readings can be large or run the other way;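 also: nearly all actives have a fitted effect of over 60% in size; nearly all hits also lower the signal before the agonist is added; a reference antagonist and vehicle were the controls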
# Target sequence (P16066 whole entry, looked up): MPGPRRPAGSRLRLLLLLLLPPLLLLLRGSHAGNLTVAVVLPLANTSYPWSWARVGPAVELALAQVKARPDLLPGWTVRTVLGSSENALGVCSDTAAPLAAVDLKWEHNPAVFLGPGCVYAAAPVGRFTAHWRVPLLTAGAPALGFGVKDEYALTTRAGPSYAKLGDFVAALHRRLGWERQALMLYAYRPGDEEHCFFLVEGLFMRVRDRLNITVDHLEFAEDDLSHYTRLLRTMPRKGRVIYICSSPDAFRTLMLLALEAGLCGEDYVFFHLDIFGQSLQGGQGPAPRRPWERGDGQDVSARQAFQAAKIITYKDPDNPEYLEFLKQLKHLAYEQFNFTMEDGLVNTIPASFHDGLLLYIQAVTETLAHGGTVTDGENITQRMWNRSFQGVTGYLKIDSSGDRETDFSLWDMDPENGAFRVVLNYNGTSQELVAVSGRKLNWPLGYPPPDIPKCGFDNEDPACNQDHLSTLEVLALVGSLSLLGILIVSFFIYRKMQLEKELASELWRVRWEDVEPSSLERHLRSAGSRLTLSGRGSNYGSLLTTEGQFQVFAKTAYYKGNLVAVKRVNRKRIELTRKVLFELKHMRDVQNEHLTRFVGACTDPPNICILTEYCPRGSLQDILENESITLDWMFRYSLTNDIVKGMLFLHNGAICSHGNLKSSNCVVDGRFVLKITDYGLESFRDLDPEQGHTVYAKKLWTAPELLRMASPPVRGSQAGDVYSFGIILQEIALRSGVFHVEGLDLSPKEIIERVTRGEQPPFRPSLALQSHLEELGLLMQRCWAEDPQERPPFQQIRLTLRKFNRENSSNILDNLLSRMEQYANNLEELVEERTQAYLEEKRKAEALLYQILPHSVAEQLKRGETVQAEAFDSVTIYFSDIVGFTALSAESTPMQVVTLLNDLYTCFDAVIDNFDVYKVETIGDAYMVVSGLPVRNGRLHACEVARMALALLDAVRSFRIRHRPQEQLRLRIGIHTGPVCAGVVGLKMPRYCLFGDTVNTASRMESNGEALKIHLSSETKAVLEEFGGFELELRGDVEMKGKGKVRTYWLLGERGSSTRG
#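 Compound pre-incubated 30 min at room temperature on GloSensor-loaded HEK293 cells stably carrying hNpr1 and the pGS-40F cGMP biosensor. Stimulation uses hNppA at 0.1 nM final; luminescence is taken at baseline and 20 min post-agonist.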
# Starred values were filed as active, the others as inactive; ? = inconclusive; [ ] = remark or other dose. % is scaled to controls: 0 for no effect and ±100 for the full control effect; potency is read from the fitted curve at half-maximal effect.
SMILES,hNpr1 antagonist
COc1ccc(CC(=O)N2CCC(Cc3nc(-c4ccccc4)no3)CC2)cc1OC,10µM*
CS(=O)(=O)N1CCC(C2CCNC2)CC1 (configuration not stated),12%
C=CCn1c(CN2C[C@@H]3C(C(=O)N(C)C)[C@@H]3C2)nc2ccccc21 (some centres not stated),-1%
Cc1cc(C(=O)N2CC[C@](O)(c3ccccc3)[C@H](N(C)C)C2)n[nH]1,1%
Cc1nc(C(=O)N2CC[C@H](n3nnc(C(N)=O)c3C(N)=O)C[C@H]2C(=O)N[C@@H](Cc2cccs2)C(N)=O)cs1,5%
CC1(C(=O)NCC2CCCCC2)CCCCC(=O)N1 (configuration not stated),1%
CCN1CC2(CCN(C(=O)COC(C)C)CC2)CC(c2ccccc2)C1=O (configuration not stated),-7%
Cc1noc2c(NC(C)C)cc(-c3ccc(Cl)cc3)nc12,1%[70.6 µM]
O=C(O)CCC1CCCN(S(=O)(=O)c2ccccc2)C1 (configuration not stated),0%
O=c1cc(-c2cccnc2)oc2c(-c3cccc(F)c3)nccc12,0%[70.6 µM]
CN1CC[C@H]2CN(C(=O)CCCc3ccccc3)C[C@@]2(C(=O)O)C1,0%
COc1ccc(C(=O)Nc2ccc([C@H]3OCC(=O)N[C@@H]3CO)cc2)cc1,1%[70.6 µM]
O=C(NCc1ccncc1)C1CN(C(=O)c2cc(F)ccc2F)CC12CCOCC2 (configuration not stated),2%
Cc1nnc(CN(C)C(=O)CC(c2ccccc2)c2ccc(Cl)cc2)o1 (configuration not stated),-2%
CCN1CC2(CCN(C(=O)c3cc4c(cc3OC)CCC4)CC2)OC1=O,0%
CCn1nccc1C(=O)N1CC(Oc2ccc(-c3nc(-c4ccccc4)no3)cc2)C1,4.5µM*
Cc1ccc(-c2nc(CNC(=O)[C@@H]3CCC[C@H](N)C3)[nH]c2-c2ccccn2)cc1,-2%
CCCN(CC1CCOC1)C(=O)NCCC(C)C (configuration not stated),-2%
CN1c2cc(C(=O)NCc3cccc(Cl)c3)ccc2C(=O)N2CCCCCC21 (configuration not stated),5%
O=C1NCCCCCCN(C(=O)Cc2ccccc2)[C@H]2CCCC[C@@H]12,0%
O=C(O)CCC1CCCN(S(=O)(=O)c2ccc(F)cc2)C1 (configuration not stated),0%
Cc1ccc(O)c(CN2CCC(C3(c4ccccn4)NC(=O)NC3=O)CC2)c1 (configuration not stated),5%
Cc1ocnc1C(=O)N1CC[C@@H]2[C@@H](CCC(=O)N2CCc2cnc[nH]2)C1,6%
CCN1C(=O)CCc2cc(NC(=O)Cc3ccc(F)cc3)ccc21,1%
c1cnc(-c2noc(-c3nc(-c4ccc5c(c4)OCO5)no3)n2)cn1,-9%
COCC1CN(Cc2cccc(OC(F)(F)F)c2)CC12CCNCC2 (configuration not stated),-6%
Cc1cccc(CNC(=O)C2Cn3cccc3C(=O)N2CC(C)C)c1 (configuration not stated),-3%
Cc1cnc(C(=O)NC2CCN(C(=O)N3CC4CC(C3)[C@H]3CCCC(=O)N3C4)CC2)cn1 (some centres not stated),-3%
c1ccc(-c2cc3c(cn2)NCCN(CC2CC2)C3)cc1,-8%[70.6 µM]
CCn1c(C2CCN(C(=O)[C@@H](N)Cc3cnc[nH]3)CC2)nn(C)c1=O,7%
O=C(NC1CC1)c1ccccc1OCC1CCCN(Cc2ccncc2F)C1 (configuration not stated),-5%
O=C1CCN(C(=O)Cc2c[nH]c3ccccc23)CCCC(C(=O)NCc2ccccc2)CCN1 (configuration not stated),-1%
Cn1nccc1C(=O)N1CCCCCC1c1nc(C2CC2)no1 (configuration not stated),-10%
CNC(=O)[C@@H]1CN(C(=O)Cc2cccnc2)C[C@H]1COC,-1%
CCn1ccn2c(-c3ccccc3)nc(C)c2c1=O,5%
CCn1c(-c2ccccc2)nn(CC(=O)NCCc2noc(C3CC3)n2)c1=O,1%
Cc1ccc(C#N)c(N2CCC(c3nnc(Cn4cncn4)n3C)CC2)n1,-1%
COc1ccccc1-c1cn(C)c(=O)n2cc(CN3CCNC(=O)C3)nc12,5%[70.6 µM]
CCOC(=O)c1cn(C2CN(C(=O)c3ccccc3Br)C2)nn1,0%
Cc1noc2c(NC(C)C)cc(-c3cccc(C(F)(F)F)c3)nc12,-3%[70.6 µM]

# Some values from above.
# In hNpr1 antagonist, O=C1CCN(C(=O)Cc2c[nH]c3ccccc23)CCCC(C(=O)NCc2ccccc2)CCN1 (configuration not stated) has the entry -1%
# In hNpr1 antagonist, CCOC(=O)c1cn(C2CN(C(=O)c3ccccc3Br)C2)nn1 has the entry 0%

# Carrying on.
SMILES,hNpr1 antagonist
COCCNC(=O)C[C@@H]1c2nc(-c3ccccc3)sc2C[C@@H]2[C@](C)(CO)[C@H](O)CC[C@]21C,-1%
O=C(COc1ccccc1)N1CCOC[C@H](Oc2ccccc2)C1,3%[70.6 µM]
O=C(CCc1c[nH]c2ccccc12)N1CCCC2(CCOC2)C1 (configuration not stated),2%
O=c1[nH]c(C2CCN(Cc3ccc(-c4cccnc4)cc3)CC2)nc2ccc(F)cc12,?
CS(=O)(=O)N1C[C@H]2CCN(Cc3ccccc3C#N)C[C@H]21,11%
Cc1nc(CCC(=O)NCc2cc3n(n2)CCCN(C(=O)N(C)C)C3)n[nH]1,0%
Cc1ccc(CN2C(=O)[C@@H]3C[C@@H](O)CN3C3(CN(C(C)C)C3)C2=O)o1,3%[70.6 µM]
COC1CCN(C(=O)C2(C)CN(Cc3ccccc3)Cc3ccc(Nc4ccccc4)nc32)CC1 (configuration not stated),-17%
COc1ccc(NC(=O)c2nc(C(O)c3cccc(O)c3)oc2C)cn1 (configuration not stated),-6%[70.6 µM]
Cc1ccc(CNC(=O)Cn2c(N3CCC(C)CC3)nc(C)cc2=O)cc1,0%
O=C(CN1C(=O)NC2(CCCCC2)C1=O)Nc1ccc(F)cc1,2%
CN1CCN(c2nc3c(c(=O)[nH]2)CCN(Cc2ccccc2F)CC3)CC1,1%
CCCNC(=O)N1CCC(c2nc(CCOc3cccc(C)c3)no2)C1 (configuration not stated),-11%
C=CCNC(=O)CC1CCCN(c2cnn(CC)c(=O)c2)C1 (configuration not stated),-2%
CNC(=O)N1CCC(Oc2ncccc2C(=O)N(C)C)C1 (configuration not stated),5%
COc1ccccc1CN1Cc2cc(NC(=O)c3ccc(OC)c(OC)c3)ccc2OC(C)C1=O (configuration not stated),-5%
CN1CCN([C@H]2CCN(C(=O)COCc3ccccc3)C[C@H]2CCCO)CC1,2%
O=C(Nc1ccccc1)N1CCN(c2nc3ncccc3o2)CC1,-6%[70.6 µM]
CC(C)c1ccc(CNC(=O)C2CCN(c3cc(C(F)(F)F)ncn3)CC2)cc1,13µM*
Cc1cccc(O[C@H]2COCCN(C(=O)c3cc(C)nn3C)C2)n1,-1%[70.6 µM]

# Continued; it opens with the 2 that closed the last part.
SMILES,hNpr1 antagonist
CC(C)c1ccc(CNC(=O)C2CCN(c3cc(C(F)(F)F)ncn3)CC2)cc1,13µM*
Cc1cccc(O[C@H]2COCCN(C(=O)c3cc(C)nn3C)C2)n1,-1%[70.6 µM]
CN1Cc2nc(NCCOc3ccccc3)ccc2OCC1=O,-22%[70.6 µM]
O=C1CCN(S(=O)(=O)c2ccccc2)CCCN(C(=O)CCC2CCCC2)CCN1,5%
N#Cc1ccc(CNC2(Cc3cc(CN4CCN(c5ccccc5)CC4)on3)COC2)cc1,?
COc1cccc(C(=O)N2CCC3(CC2)CC(Cc2ccccc2)=NO3)c1,7%[70.6 µM]
Cc1cc2cccc(C(=O)N3CCc4nc(-c5cn[nH]c5)[nH]c4C3)c2o1,1%
O=C([C@@H]1C[C@@H](c2ccc(F)cc2)N([S+](=O)([O-])c2cccnc2)C1)N1CCOCC1,-8%[70.6 µM]
CC(C)c1nnc(NC(=O)CC[C@H]2NC(=O)c3ccccc3NC2=O)s1,-2%
Cc1ccc(C(=O)NC[C@H]2O[C@@H](CC(=O)NCCN3CCOCC3)[C@H](O)[C@@H]2O)cc1,-1%[70.6 µM]
Cc1ccccc1CC(=O)N1CC(C(=O)NC2CCCCC2)C2(CCOCC2)C1 (configuration not stated),-5%
CN1CCN(C(=O)CCS(=O)(=O)c2ccccc2)CC(O)C1 (configuration not stated),-5%
CN(C)c1cccc(C(=O)N2CCCC(n3cc(-c4nc(-c5ccccc5)no4)nn3)C2)c1 (configuration not stated),?
Cc1ccc(CN2C(=O)[C@@H]3C[C@@H](O)CN3C3(CN(C4CCC(F)(F)CC4)C3)C2=O)o1,-4%[70.6 µM]
COc1ccc(-c2n[nH]c3c2CC(=O)N(CCOc2ccccc2)C3)cc1F,-18%[70.6 µM]
Cc1ccc(CN2CCC(N3CC4CCCN4C3=O)CC2)cc1 (configuration not stated),4%[70.6 µM]
CC1(c2nc(C3CCOCC3)nn2CC2COCCO2)CC1 (configuration not stated),6%
CC(C)C(=O)N1CCC(N2CC(OCC3CC3)C23CCCCC3)CC1 (configuration not stated),-2%
O=C(Cc1cccc(Cl)c1)NC1CCN(c2cc(-c3ccccc3)[nH]n2)CC1,-30%
CCOc1ccc(C(=O)N[C@@H]2CN(S(C)(=O)=O)C[C@H]2CN(C)C)cc1,-1%
NC(=O)N1CCCC1C(=O)N1CCC(c2cc(Cc3ccccc3)[nH]n2)CC1 (configuration not stated),1%
CN1CCN(Cc2nc(C3(O)CCN(Cc4ccccc4C(F)(F)F)CC3)cs2)CC1,2%
Fc1ccc(C2Cn3nnc(-c4nc(C5CCCCC5)no4)c3CO2)cc1 (configuration not stated),?
O=C(c1cccc(F)c1)N1CCC(n2cnnc2-c2ccccc2)CC1,-8%
CC1=C[C@@H](CNC(=O)C2CC2)[C@H](C(C)C)C[C@H]1CC(=O)NC1CCCC1,3%[70.6 µM]
CN1CCC2(C1)CN(CC1CCOCC1)c1ccc(C(=O)NCC(F)(F)F)cc12 (configuration not stated),0%[70.6 µM]
Cc1cc(C)n(CCCN(C)Cc2cc3n(n2)CCNC3)n1,8%
COc1ccc(C(=O)NC2CCN(c3cc(-c4cccs4)[nH]n3)CC2)c(C)c1,-24%
CC(C)C[C@@H](NC(=O)[C@@]1(O)C[C@@H](O)[C@H](O)[C@@H](NC(=O)CS(=O)(=O)c2ccccc2)C1)C(N)=O,0%
O=C(c1ccoc1)N1CC(Oc2ccccc2-c2nc(C3CC3)no2)C1,3%
O=C(Cc1c(F)cccc1Cl)Nc1ccc2ncnc(N3CCCC3)c2c1,-4%
CCN1CC(C(=O)NCc2cccc(-c3ccccc3)c2)CCC1=O (configuration not stated),?

# Some of the entries above, set out differently.
smiles	hNpr1 antagonist
O=C(Cc1c(F)cccc1Cl)Nc1ccc2ncnc(N3CCCC3)c2c1	-4%
O=C(c1ccoc1)N1CC(Oc2ccccc2-c2nc(C3CC3)no2)C1	3%
Fc1ccc(C2Cn3nnc(-c4nc(C5CCCCC5)no4)c3CO2)cc1 (configuration not stated)	?

# The list continues:
SMILES,hNpr1 antagonist
Cc1cc(C(=O)N2c3ccccc3CC2c2nnc(C3CC3)o2)nn1C (configuration not stated),-3%
O=C(c1cccc(Cl)c1)N1CCC2(C1)NC(=O)N(Cc1ccc(Cl)cc1)C2=O (configuration not stated),?
COc1ncc(-c2cc3c(nc2OC)nc(CCc2ccccc2)n3C)cn1,11%[70.6 µM]
COc1ccc(C(=O)N2CCN(C(=O)c3cccs3)C[C@@H]2C(=O)N[C@H]2CCCNC2=O)cc1,0%
CCOc1ccc2c(n1)CCN(C(=O)Cc1cccc(C)c1)C2,3%
O=C(CCc1ccnc(N2CCCC2)c1)NCc1ccccc1Cl,-10%
CCCN1CCC2(CCN(C(=O)c3ccc(F)cc3)CC2)Oc2ccccc21,23%
COc1ccc(NC(=O)N[C@H]2CO[C@H]3[C@@H]2OC[C@H]3OC(=O)Nc2cccc(C(C)=O)c2)cc1,-13%
Cc1oc2ccn(Cc3cccc(F)c3)c(=O)c2c1C(=O)NCc1ccccc1,-16%
O=C(NC1CCc2nnc(C3CC3)n2CC1)c1ccsc1 (configuration not stated),3%
COc1ccccc1CC(=O)N1CCCc2ncc(C(=O)NCCC(C)C)cc21,-10%[70.6 µM]
Cc1cc(C)cc(NC(=O)N2c3ccccc3CC2c2noc(C3CCOCC3)n2)c1 (configuration not stated),-7%
COc1ccccc1CN1C[C@@H](F)[C@@H](OCc2nc3ccccc3o2)C1,-2%[70.6 µM]
O=C(Cc1ccc(Br)cc1)N1CCCN(c2cc(-c3ccc(F)cc3)[nH]n2)CC1,?
Cc1ccc(Cc2nc(C3CC(=O)N(c4ccc(Cl)cc4)C3)no2)cc1 (configuration not stated),-12%
CCc1ccccc1OCC(=O)c1ccc2c(c1)N(CCCC(=O)NCC1CCCO1)C(=O)CO2 (configuration not stated),0%
COCC[C@]1(O)CCN(C(=O)CN2C(=O)CNC2=O)C[C@H]1C,1%
COc1ccc(N2CCN(c3nc(C(=O)NCc4ccc(C)cc4)cs3)CC2)cc1,4.5µM*
COc1cccc(CN(C)C2CCc3ccccc32)c1 (configuration not stated),-1%[70.6 µM]
Cc1nonc1CC(=O)N1CCCC(c2n[nH]c(=O)n2-c2ccccc2)C1 (configuration not stated),3%

# Molecules shown so far that have a cyano group, in the order listed:
SMILES,hNpr1 antagonist
Cc1ccc(C#N)c(N2CCC(c3nnc(Cn4cncn4)n3C)CC2)n1,-1%
CS(=O)(=O)N1C[C@H]2CCN(Cc3ccccc3C#N)C[C@H]21,11%
N#Cc1ccc(CNC2(Cc3cc(CN4CCN(c5ccccc5)CC4)on3)COC2)cc1,?

# Only part of the results is shown; count on the stated rates, not on these rows.
